# NPYLR7 ag: activates Aedes aegypti NPYLR7 receptor; HEK293T NPYLR7/Galpha15, GCaMP6s calcium fluorescence; AID 1259423; actives 0.15% (n = 270,000); activation, % at 10 µM; in the data active means activation above about 40%;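 further: 0% = vehicle and 100% = reference agonist at the receptor; some compounds past the cut are filed as inactive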
# NPYLR7 ag max-min: also measured in NPYLR7 ag; calls as there; activation, %; measured here: Max-Min RFU normalised activation; some inactives read as strong as hits;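 span of the calcium signal over five minutes; 0% = vehicle and 100% = native peptide agonist; compound fluorescence can raise it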
# * = called active by the depositor; & = joins results of further samples.
SMILES,NPYLR7 ag,NPYLR7 ag max-min
Cc1nc(C)c(NC(=O)c2ccc(OCC(C)C)nc2)s1,-26,-23
CN(Cc1ccc(N2CCOCC2)cc1)S(=O)(=O)c1cc(Cl)cc(Cl)c1,1,5
Cc1ccc(-n2nc(C)c(CCC(=O)NCc3ccccn3)c2C)cc1Cl,25,13
Cc1cc(-c2cn(S(=O)(=O)c3ccccc3)nc2N)ccc1F,-3,-4
CN1CC=C2C(C#N)C(=N)C(C#N)(C#N)C(c3cc(Cl)cs3)C2C1 (stereo unspecified),6,-2
O=[N+]([O-])c1cc(S(=O)(=O)N2CCCC2)ccc1NN=Cc1c(Cl)nc2sccn12,0,-4
CC(=O)Nc1cccc(SC(F)(F)F)c1,18,7
CCOC(=O)C1=C(C)NC2=C(C(=O)CC(c3ccc(OC)cc3)C2)C1c1ccccc1OC(C)C (stereo unspecified),5,4
O=C(NS(=O)(=O)c1ccccc1)c1cccc(Cl)c1,-24,-21
O=C1C2C(C(=O)N1/N=C\c1cc3c(cc1Br)OCO3)C1C=CC2C12CC2 (stereo unspecified),-3,5
CCN(CC)P(=N)(c1c(C)nc2ccccn12)N(CC)CC,6,3
O=C(CCl)Nn1cnc2c(cnn2-c2cccc(Cl)c2)c1=O,3,0
COc1ccccc1C1=N/C(=C\C(C)=C\c2ccccc2)C(=O)O1,-1,-7
COC(=O)C1C(=O)CSC1=Nc1ccc(OC)c(OC)c1 (stereo unspecified),-2,9
O=c1ccc(-c2cccs2)nn1Cc1ccccn1,6,1
Cc1cccc2sc(N(Cc3ccccn3)C(=O)c3cccc(S(C)(=O)=O)c3)nc12,-2,-7
COC(=O)c1cc2c(=O)[nH]c(C(F)(F)F)nc2s1,7,2
O=C(NCCCN1CCCC1=O)C(=O)NCC(c1ccco1)N1CCN(c2ccc(F)cc2)CC1 (stereo unspecified),8,5
COCCCNCC(=O)N1CCc2sccc2C1c1ccccc1C (stereo unspecified),-7,-15
Cc1nc2sc(C)c(C)n2c(=O)c1NC(=O)C1CC1,15,6
CN(Cc1nc2c(cnn2-c2ccccc2)c(=O)[nH]1)Cc1c(F)cccc1Cl,7,5
Cc1cccc(C)c1NC(=O)CN1CCN(CCCC(c2ccc(F)cc2)c2ccc(F)cc2)CC1,-8,-14
COc1ccc(OCCNC(=O)c2cncn2-c2cccc(-c3ccc(OC)c(OC)c3)c2)cc1,5,4
N#Cc1c(NC(=O)CSc2ncnc3sc4c(c23)CCC4)sc2c1CCC2,6,4
CCOc1ccc(C=C2N=C(c3ccc(OC)c(OC)c3)OC2=O)cc1,7,5
COc1ccc(-c2cnc(SCCNC(=O)/C=C/c3ccccc3)[nH]2)cc1,16,16
NC(=NCc1ccc(Cl)c(Cl)c1)NC(=O)c1nc(Cl)c(N)nc1N,-4,-18
CNc1cccc(-c2ccc(C(=O)NOC)cc2)n1,5,2
CN(Cc1ccccn1)C(=O)c1cc(C(N)=O)n(-c2ccccc2)n1,6,7
Cc1csc(=O)n1CCN1c2ccccc2CC1C (stereo unspecified),-2,-3
Nc1nn(C(=O)c2cccnc2N2CCOCC2)c2ccccc12,5,4
COC(=O)C1=C(C)NC(=O)C1(NS(=O)(=O)c1ccc(C)cc1)C(F)(F)F (stereo unspecified),-2,-1
Cc1cc(=O)[nH]c(-n2ncc(C(=O)Nc3cccc(C(F)(F)F)c3)c2C)n1,-1,-4
CCn1nccc1NC(=O)C1(C)CCN1C(=O)c1sccc1C (stereo unspecified),11,9
O=C(Nc1ccc(CCN2CCC(O)CC2)cc1)C1CCCCC1,1,-8
Cc1cc(=O)oc(C)c1C(=O)NC1CCCCC1,3,2
Cc1cc2nc(C)c(Cl)c(=O)n2[nH]1,-14,-22
CN(Cc1ccccc1)Cc1nc2c(c(=O)n(C)c(=O)n2C)n1Cc1ccccc1Cl,3,4
Cc1ccc2nc(/C=C/c3cn[nH]c3C(C)(C)C)ccc2c1,8,5
Cc1ccn(CCN2CCC(Oc3ccccc3Cl)CC2)n1,9,-8
CCOC(=O)C1C(=O)NC(N2CCN(CC)CC2)=NC1C(C)C (stereo unspecified),5,2
CN(CC(=O)NCC(F)(F)F)C(=O)Nc1cc(Cl)ccc1Cl,1,0
COc1ccccc1-c1cc(C(=O)NC(C)(C)C)n2nc(C(C)(C)C)cc2n1,-10&3,-3&15
CC(C)C(=O)Nc1cc(C(C)(C)C)nn1-c1ccccc1Cl,20,25
O=C(NCC1=CCCN(Cc2ccc3ccccc3n2)C1)c1ccco1,5,0
OCCNc1nccc2[nH]c(-c3cccc(OC(F)(F)F)c3)nc12,-6,-10
COCCN(CC(=O)N(Cc1ccc(F)cc1)Cc1ccco1)C(=O)c1ccc(-c2ccccc2)cc1,-10,3
CCc1c(C)nc(-n2nc(C)cc2NC(=O)C(CC)c2ccccc2)[nH]c1=O (stereo unspecified),12,6
Cc1ccc2nc(CSc3ncnc4sc5c(c34)CCCC5)cc(=O)n2c1,9,14
O=C(C(=O)N1CCC(c2ccccc2Cl)C1)c1ccco1 (stereo unspecified),1,3

# Later entries:
SMILES,NPYLR7 ag,NPYLR7 ag max-min
Cc1nc(CC(=O)NC(C)c2nc(-c3ccccc3C)no2)c(C)s1 (stereo unspecified),7,-1
Cc1ccc(-c2nc(C)sc2CC(=O)N2CCOc3ccccc32)cc1,5,3
C#CCOc1ccc(C=C2NC(=O)NC2=O)cc1OC,1,-3
O=C1C2C(c3ccc([N+](=O)[O-])cc3)NN(Cc3ccccc3)C2C(=O)N1c1ccccc1 (stereo unspecified),11,9
CC1=NOC(C)(C(=O)Nc2ccc(Cl)c(C(=O)OC(C)C)c2)C1 (stereo unspecified),19,7
O=C(CN1CCN(Cc2ccccc2)CC1)NC(=O)NCc1ccccc1,3,-2
CC(C)C(Oc1ccccc1C#N)C(=O)Nc1ccccc1O (stereo unspecified),10,8
CCOc1ccc(-c2ccc(C(=O)N3CCc4ccccc4C3c3ccc(F)cc3)s2)cc1 (stereo unspecified),27,11
CC(C)Cc1noc(CN(C)CC(=O)Nc2nc3ccccc3[nH]2)n1,0,5
O=c1cc(Cn2nnc(-c3ccc(Cl)cc3)n2)nc2sccn12,10,8
Cc1occc1CN(C)C(=O)c1ccc(S(N)(=O)=O)o1,-1,1
Cc1c(C(=O)NCc2ccccc2)sc(=O)n1CCc1ccccc1,5,-4
O=C(NC1CC1)[C@@]1(OCc2ccc(F)cc2)CC(OCc2ccccc2F)[C@H](O)[C@H](O)C1 (stereo partly specified),27,12
C=CCc1cc(OC)ccc1OCCCCn1cnc2ccccc2c1=O,-7,6
Cc1ccc(NC(=O)c2csc(CSc3nnc(-c4ccncc4)n3-c3ccccc3Cl)n2)cc1C,-2,7
CC(NC1CCN(c2ccc3c(c2)OCO3)CC1)c1cn2ccsc2n1 (stereo unspecified),4,20
CCCCOc1ccc(C(=O)Nc2ccc(F)cc2F)cc1,6,1
COc1ccc(Nc2nc(NCC3CCCO3)nc(N)c2[N+](=O)[O-])cc1 (stereo unspecified),1,0
O=C(Nc1ccc2c(c1)CN(Cc1ccccc1O)CC2)C1CCCO1 (stereo unspecified),2,-2
O=C(CCN1CCc2sccc2C1c1cccc(F)c1)N1CCN(C(=O)c2cccc([N+](=O)[O-])c2)CC1 (stereo unspecified),7,-3
COc1cc(F)c(NC(=O)C(=O)N2CCCOCC2)cc1OC,0,-1
CC(C(=O)O)N1C(=O)/C(=C/c2cccc(Br)c2)SC1=S (stereo unspecified),-5,-9
CSc1nnc(C)c(=O)n1COC(=O)c1ccc(Cl)cc1Cl,1,0
NC(=O)C1CC2CCCCC2N1CC(=O)Nc1cc(Cl)c(Cl)cc1Cl (stereo unspecified),0,12
Cc1ccccc1-n1nc(C)c(CNC(=O)c2cc(-c3ccc(Br)cc3)nc3ccccc23)c1C,-16,-25
CCOc1ccc(-c2ccc(=O)n(CCNS(=O)(=O)c3ccccc3)n2)cc1,1,-1
CCOC(=O)c1cnc(-c2ccc(OC)cc2)nc1N1Cc2ccccc2C1,-3,-6
C=C(C)COc1ccccc1C(=O)N(C)Cc1ccc(CC)cn1,-3,-5
C=CCn1c(Cl)c(/C=N\NC(=O)Cc2ccccc2)sc1=O,12,11
Cc1nnc(NC(=O)CSc2nnc(CNC(=O)c3ccccc3C(F)(F)F)n2-c2ccc([N+](=O)[O-])cc2)s1,-6,3
CCc1ccc(N2C(=O)C3N=NN(Cc4nc(-c5cccc(Cl)c5)oc4C)C3C2=O)cc1 (stereo unspecified),-3,-7
CN1C(=CC(=O)C2CC2)C(C)(C)c2ccccc21,3,43
CN(C)C(=O)CN1CCC2(CC1)OCc1ccccc12,-2,7
COCCNS(=O)(=O)c1c(C)nc2sccn2c1=O,2,-3
COCc1nc2ccccc2n1CCCOc1cccc(C)c1,6,7
COc1ccc(-c2nnc(SCC(=O)N/N=C\c3cc([N+](=O)[O-])ccc3O)n2-c2ccccc2)cc1OC,14,21
CC(C)n1c2c(=O)[nH]c(=O)n(C)c2n2c(-c3ccccc3)nnc12,4,-1
CCN(CC)c1ccc(CNc2nc(-c3cccnc3)nn2C(=O)COC)cc1,3,0
O=C1C2C3C=CC(C2C(=O)N1CCO)C1C2C(=O)N(CCO)C(=O)C2C31 (stereo unspecified),2,-1
CC(=O)c1cccc(NC(=O)c2cc(-c3ccc(C)s3)nc3c2cnn3C(C)C)c1,2,11
Cn1c(=O)c2c(SCC(=O)N3CCc4ccccc43)nc(-c3ccccc3Cl)nc2n(C)c1=O,-5,-7
CC(=O)Nc1ccc(S(=O)(=O)N(C)CC(=O)Nc2cccc(NC(=O)c3ccco3)c2)cc1,6,10
CCOC(=O)C1=C(C)N=c2s/c(=C3\C(=O)N(C(C)=O)c4ccccc43)c(=O)n2C1c1ccccc1 (stereo unspecified),-10,-14
CC1CN(S(=O)(=O)c2ccc(NC(=O)COc3ccc(Br)cc3)cc2)CC(C)O1 (stereo unspecified),3,11
CCOc1ccc(CC(=O)Nc2cc(-c3cccs3)nn2-c2nc(C(C)C)cc(=O)[nH]2)cc1,2,-2
O=C(CC1C(=O)NCCN1CC(c1ccccc1)c1ccccc1)NCc1ccccc1 (stereo unspecified),-2,-2
Cc1cc(C)c(C)c(S(=O)(=O)N2CCCCC2C)c1C (stereo unspecified),-1,-6
CCc1ccc(OCCOCC(O)CNC(C)CC)cc1 (stereo unspecified),-4,-8
C=CCCC(O)CN(Cc1ccc2c(c1)OCO2)Cc1cc(C)ccc1C (stereo unspecified),32,36
CNC(=O)CN1CCC(CN(C)CCOc2ccc(C#N)cc2)CC1,2,28

# More results
SMILES,NPYLR7 ag,NPYLR7 ag max-min
CC(C)N(C)Cc1nc(C(=O)NCc2ccc(F)cc2)no1,3,0
O=C(c1cc(-c2ccccc2)nc2cc(-c3ccccc3)nn12)N1CCN(C/C=C/c2ccccc2)CC1,16,17
CCn1nc(C)c(NC(=O)CN(C)C(C)c2nccs2)c1C (stereo unspecified),-1,-6
CN(C)c1ccc(-c2nnc(NC(=O)C(Cc3ccccc3)NC(=O)Nc3ccccc3F)s2)cc1 (stereo unspecified),3,17
O=C(CN1CSCC1=O)NCC(=O)Nc1ccc(Br)cc1,-5,-5
CCc1c(C(=O)O)cnn1-c1ccc(=O)[nH]n1,-1,-5
CN(C)C(=O)c1ccc(Nc2cc3c(cn2)cc(-c2cccnc2)n3Cc2ccccc2)cc1,7,11
Cc1[nH]n(-c2nc(-c3ccc(Cl)cc3)cs2)c(=O)c1N=Nc1cc(C(F)(F)F)ccc1Cl,-12,-18
CC(C)(C)OC(=O)NCC1CCCCC1OC(=O)C1CCOCC1 (stereo unspecified),-1,1
CCOC(=O)C1CCN(C(c2cccc(F)c2)C2Sc3nc(CC)nn3C2=O)CC1 (stereo unspecified),-2,7
COC(=O)c1c(C)[nH]c(C(=O)COC(=O)c2c(C)noc2C)c1C,5,14
CCn1c(=NC(=O)CCS(=O)(=O)c2ccccc2)sc2cc(OC)c(OC)cc21,4,1
COc1cccc(C(=O)Nc2cccc(-n3nc(OC)nc3-c3ccc(Cl)c(Cl)c3)c2)c1,17,17
COc1ccc2nc(-c3ccc(NS(=O)(=O)c4cc(C)c(OC)cc4C)cc3)cn2n1,-8,-11
Cc1ccc(Cl)cc1-n1c(SCc2nc(C(=O)N3CCC4(CC3)OCCO4)cs2)nnc1-c1cccnc1,9,8
COc1ccc2nc(-n3nc(C)cc3NC(=O)c3ccnn3C)sc2c1,-10,-18
CC(C)NC(=O)Cn1c(-c2cccnc2)nc2ccccc21,-7,-12
COc1ccccc1-n1c(=O)c2ccccc2n(Cc2ccc(C(=O)NCc3cccnc3)cc2)c1=O,10,25

# Entries shown so far containing an NH in an aromatic ring:
SMILES,NPYLR7 ag,NPYLR7 ag max-min
COC(=O)c1cc2c(=O)[nH]c(C(F)(F)F)nc2s1,7,2
CN(Cc1nc2c(cnn2-c2ccccc2)c(=O)[nH]1)Cc1c(F)cccc1Cl,7,5
COc1ccc(-c2cnc(SCCNC(=O)/C=C/c3ccccc3)[nH]2)cc1,16,16
Cc1cc(=O)[nH]c(-n2ncc(C(=O)Nc3cccc(C(F)(F)F)c3)c2C)n1,-1,-4
Cc1cc2nc(C)c(Cl)c(=O)n2[nH]1,-14,-22
Cc1ccc2nc(/C=C/c3cn[nH]c3C(C)(C)C)ccc2c1,8,5
OCCNc1nccc2[nH]c(-c3cccc(OC(F)(F)F)c3)nc12,-6,-10
CCc1c(C)nc(-n2nc(C)cc2NC(=O)C(CC)c2ccccc2)[nH]c1=O (stereo unspecified),12,6
CC(C)Cc1noc(CN(C)CC(=O)Nc2nc3ccccc3[nH]2)n1,0,5
CC(C)n1c2c(=O)[nH]c(=O)n(C)c2n2c(-c3ccccc3)nnc12,4,-1
CCOc1ccc(CC(=O)Nc2cc(-c3cccs3)nn2-c2nc(C(C)C)cc(=O)[nH]2)cc1,2,-2
CCc1c(C(=O)O)cnn1-c1ccc(=O)[nH]n1,-1,-5
Cc1[nH]n(-c2nc(-c3ccc(Cl)cc3)cs2)c(=O)c1N=Nc1cc(C(F)(F)F)ccc1Cl,-12,-18
COC(=O)c1c(C)[nH]c(C(=O)COC(=O)c2c(C)noc2C)c1C,5,14

# Screens (PubChem BioAssay)

# Some of the compounds tested (hit frequency here may not be typical).
